# miR-21 reporter: qHTS Assay for Modulators of miRNAs and/orActivators of miR-21 | HeLa miR-21 FLuc reporter, luciferase, 48 h | Potency, µM (doses to about 38.3 µM), inactives show at the highest dose reporter change, positive = more light | 340,000 tested, under 10 active | AID 2288, 2010; active = well fitted rising curve with a large enough effect; inconclusive = small, poorly fitted or top-dose-only effect; inactive = no such curve, though single readings can be large or run the other way;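 further: % of control where 0% means no effect; miR-21 action dims this reporter so a rising signal means less miR-21 action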
#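 Using DMEM plus 10% FBS, HeLa miR-21-FLuc cells are incubated with test compounds (final up to about 40uM) for 48 hours; firefly luciferase signal is then imaged following reagent-mediated lysis.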
# * = called active by the depositor; ? = inconclusive; [ ] = remark or other dose. This is a subset. The share of hits here may be higher or lower than overall.
SMILES	miR-21 reporter
CCOC(=O)C1CCN(C(=O)Cn2c(=O)oc3cc(S(=O)(=O)N4CCC(C)CC4)ccc32)CC1	1.2%
COCCCn1c(=O)c2sccc2n2c(CCCC(=O)Nc3cc(C)cc(C)c3)nnc12	-0.5%
COc1cc(NC(=O)Cn2ncc3c([nH]c4ccc(C)cc43)c2=O)cc(OC)c1OC	0.3%
CC(NC(=O)c1ccc2nc(Cc3ccccc3)oc2c1)c1ccccc1 (stereo unspecified)	-1.6%
COc1ccccc1NC(=O)c1oc2ccccc2c1NC(=O)c1c(F)cccc1F	-3.8%
CN(C)c1ccc(C(CNC(=O)COc2ccc(Cl)cc2)N2CCOCC2)cc1 (stereo unspecified)	-2.7%
COc1ccc(OC)c(-c2noc(CSc3nnc(-c4ccccc4)n3-c3ccccc3)n2)c1	0.3%
Cc1cc(C)c(/C=C/c2onc(C)c2S(=O)(=O)N2CCC(C(=O)NCCc3ccccc3)CC2)c(C)c1	3.4%
CCCCn1c(C)cc2c(c1=O)C1O[C@](c3ccc(OC)cc3)(Cc3cc(OC)c(OC)cc31)O2	-30.3%[7.66 µM]
Cc1ccc(NC(=O)C2CCCN2S(=O)(=O)c2ccc3c(c2)CCCC(=O)N3)cc1C (stereo unspecified)	6.9%
CCN(Cc1ccccc1)C(=O)CN1C(=O)COc2ccc(S(=O)(=O)N(CC)CC)cc21	2.0%
CN(C1CCCCC1)S(=O)(=O)c1ccc2c(c1)c(=O)c(C(=O)N1CCN(c3ccc(F)cc3)CC1)cn2C	1.3%
CC(=O)c1cccc(NC(=O)c2nc(-c3ccccc3)n(-c3ccccc3)n2)c1	6.7%
O=C(CCC1N=C2c3ccccc3N=C(SCc3cccc(Cl)c3)N2C1=O)N1CCN(c2ccccc2)CC1 (stereo unspecified)	-4.8%
COc1ccc(OC)c(NC(=O)c2c(N3CCCC3=O)c3cc(OC)ccc3n2C)c1	3.6%
CCOC(=O)c1cc(-c2ccc(OC)cc2)nn1Cc1ccccc1	-41.3%
Cc1ccc(NC(=O)N2CCN(c3cc(-c4noc(C)n4)ccc3C)CC2)c(F)c1	8.7%
O=C(Cc1csc2ccccc12)NCc1ccc(F)cc1	-58.3%
COc1ccc(C2C(=O)N(C3CCCCCC3)CC(=O)N2Cc2ccc(C)cc2)cc1OC (stereo unspecified)	-4.1%
CC(=O)c1cccc(Nc2ccc3cc(S(=O)(=O)N4CCC(C)CC4)ccc3n2)c1	21.2%
Cc1c(Cl)ccc2sc(N3CCN(C(=O)CCS(=O)(=O)c4ccc(F)cc4)CC3)nc12	28.8%
COC(=O)c1cc(C)nc2c1c(=O)nc(SCc1cccc(C(F)(F)F)c1)n2C1CC1	-1.4%
Cc1ccccc1NC(=O)c1ccc2[nH]c(C)c(C)c2c1	-69.0%
COc1ccc(C(=O)NNc2ncnc3c2cnn3-c2cccc(Cl)c2)cc1OC	-10.6%
CCCN(CCC)C(=O)Cn1c(=O)n(CCCCCC(=O)NCc2ccc3c(c2)OCO3)c(=O)c2sccc21	-2.5%
Cc1ccc(C2c3c(-c4ccccc4O)n[nH]c3C(=O)N2CCCO)cc1 (stereo unspecified)	-12.0%
CC(C)c1ccc(NC(=O)C2CCCN(S(=O)(=O)c3cccc4nonc34)C2)cc1 (stereo unspecified)	-5.3%
CC1=C(c2ccc(Cl)cc2)S(=O)(=O)NC1=NCc1ccc(C)cc1	-23.5%
CC(=O)c1ccc(NC(=O)CC(c2cccs2)N2Cc3ccccc3C2=O)cc1 (stereo unspecified)	-40.0%
CCN1CCN(c2ncnc3c2cnn3-c2ccc(F)cc2)CC1	-47.2%
COc1ccc(-c2nc3c(c(SCC(=O)N4CCCCC4)n2)Cc2cc(C)ccc2O3)cc1	-0.9%
Cc1ccc2c(CC(=O)N(Cc3ccc(N(C)C)cc3)Cc3ccco3)coc2c1C	5.0%
CCOc1cc(CNC(=O)c2ccc3c(c2)N(C)C(=O)C2CCCCN32)cc(OCC)c1OCC (stereo unspecified)	19.1%
O=C(CSc1nc(-c2ccccc2)cn1-c1ccccc1)Nc1ccccc1	-0.4%
CCOc1ccc(CCNC(=O)c2cnc3sc(N4CCCC4)nn3c2=O)cc1	4.6%
Cc1cccc(N2CCN(C(=O)C3CCN(S(=O)(=O)c4c(C)noc4/C=C/c4ccccc4F)CC3)CC2C)c1 (stereo unspecified)	14.7%
Cc1cccc(-n2ncc(C(=O)NCc3ccco3)c2C2CCN(C(=O)OC(C)(C)C)CC2)c1	15.4%
CCCN1C(=O)C(Cc2nc3ccccc3c(=O)n2-c2cccc(C)c2)c2ccccc21 (stereo unspecified)	-4.3%
Cc1ccc(C(C)C)c(OCC(=O)Nc2cc(-c3nc4ccccc4[nH]3)ccc2C)c1	-7.2%
Cc1cc(C)n(-c2nc3cc(Cl)ccc3nc2N2CCN(c3ccccc3F)CC2)n1	5.0%
Cc1ccccc1CNC(=O)CN(c1cccc(C)c1C)S(C)(=O)=O	8.8%
COc1ccc(OC)c(C(=O)CC2(O)C(=O)N(Cc3ccccc3C)c3ccccc32)c1 (stereo unspecified)	6.9%
Cc1nn(-c2ccccc2)c2c1N(CCCC(=O)NCc1ccc(Cl)cc1)C(=O)CS2	24.3%
CCc1ccccc1N(C)C(=O)c1cc2c(Cl)nc3ccc(C)cc3c2s1	-3.4%
COCCCNC(=O)c1cc(-c2ccc(OC)cc2)nc2n[nH]c(-c3ccc(Cl)cc3)c12	3.0%
CCn1c(C)c(C)c2cc(C(=O)NCc3ccc(N(C)C)cc3)ccc21	-16.1%
Cc1ccc(-n2nc(C)c3c(C(=O)NCc4ccc(F)cc4)cc(C)nc32)cc1	0.6%
O=C(Nc1ccccc1OCc1cc(=O)n2ccccc2n1)Nc1ccccc1C(F)(F)F	-11.5%
COc1cc(C(=O)Nc2ccc(OCc3cc(=O)n4ccc(C)cc4n3)cc2)cc(OC)c1OC	0.5%
Cc1ccc(-n2nc(C(=O)N3CCCCC3C)c(=O)n(C)c2=O)cc1 (stereo unspecified)	0.5%

# Following part
SMILES	miR-21 reporter
O=C(NCCC1=CCCCC1)c1ccc2c(c1)N(Cc1ccccc1F)C(=O)c1ccccc1S2=O (stereo unspecified)	-1.4%
CCc1cccc(NC(=O)C2CCN(C(=O)c3cnn(-c4ccccc4)c3-n3cccc3)CC2)c1	28.4%
Cc1c(NC(=O)c2ccc(OC(C)C)cc2)cccc1-c1nc2ncccc2o1	-0.8%
CCOc1ccc(CCNC(=O)CCc2cn(Cc3ccccc3F)c3ccccc23)cc1OCC	7.0%
O=C(Nc1nnc2n1CCS2)c1cc(C(F)(F)F)cc(C(F)(F)F)c1	2.1%
CCOC(=O)C(C)Sc1nc(-c2ccccc2)ccc1C#N (stereo unspecified)	3.6%
COc1ccc(-c2nc3ccc(C(=O)NCc4ccc(C)cc4)cc3nc2-c2ccc(OC)cc2)cc1	-1.0%
CC1CCN(S(=O)(=O)c2ccc3c(ccn3CC(=O)NCc3ccc(N(C)C)cc3)c2)CC1	-1.0%
CC[C@H](C)NC(=O)CCCc1nnc2n(CCC(C)C)c(=O)c3sccc3n12	7.5%
CC(=O)Nc1ccc(NS(=O)(=O)c2c(C(=O)N3CCCCCC3)c(C)n(C)c2C)cc1	-3.0%
COc1ccc2c(CNC3CCC(C)CC3)c(C(=O)O)n(Cc3ccccc3)c2c1 (stereo unspecified)	-0.7%
Cc1nn2c(C)c(C(=O)NCC(C)c3ccccc3)cnc2c1-c1ccccc1 (stereo unspecified)	-0.3%
CCn1ccc2cc(S(=O)(=O)N3CCC(C(=O)NCCOC)CC3)ccc21	-1.5%
CCOc1ccc(NC(=O)c2cc(S(=O)(=O)N3CCc4ccccc43)ccc2F)cc1	18.2%
COc1ccc(CNC(=O)CCc2c(C)nn(-c3ccc(N4CCCCC4)nn3)c2C)c(OC)c1	-10.8%
COc1cc2c(cc1OC)C1O[C@](c3ccsc3)(C2)OC2=C1C(=O)OC1(CCCCC1)C2	-15.8%[7.66 µM]
Cc1cc(C)c(NC(=O)COCc2cc(-c3cccs3)on2)c(C)c1	23.1%
COc1ccc(-n2c(=O)c3c4c(sc3n(Cc3ccccc3C)c2=O)CCCC4)c(OC)c1	1.6%
Cc1nnc(N2C(=O)c3oc4ccccc4c(=O)c3C2c2ccc(C(C)(C)C)cc2)s1 (stereo unspecified)	-1.5%
O=C(CSc1nc(=O)[nH]c2c1CCCC2)NCc1ccccc1Cl	-7.0%
COc1ccc(-c2ccc(CCC(=O)O)n2CC(=O)Nc2cccc(Cl)c2C)cc1	3.9%
Cc1ccc(CSc2nnc(-n3c(=O)c(C#N)cc4c(=O)n5cccc(C)c5nc43)s2)cc1	-0.3%
Cc1cc(NC(=O)c2cc(-c3ccc(Cl)cc3)on2)nn1Cc1ccc(Cl)cc1	-0.4%
O=C(COc1ccccc1-c1nc(-c2ccccc2)no1)Nc1ccccc1[N+](=O)[O-]	14.8%
COc1ccc(-c2cn3c(n2)sc2cc(C(=O)NCCC4=CCCCC4)ccc23)cc1	-9.2%

# Sorted by the number under miR-21 reporter (largest number first): six from the list above
Molecule	miR-21 reporter
O=C(COc1ccccc1-c1nc(-c2ccccc2)no1)Nc1ccccc1[N+](=O)[O-]	14.8%
CCOc1ccc(CCNC(=O)CCc2cn(Cc3ccccc3F)c3ccccc23)cc1OCC	7.0%
COc1ccc(-c2ccc(CCC(=O)O)n2CC(=O)Nc2cccc(Cl)c2C)cc1	3.9%
CCOC(=O)C(C)Sc1nc(-c2ccccc2)ccc1C#N (stereo unspecified)	3.6%
CC1CCN(S(=O)(=O)c2ccc3c(ccn3CC(=O)NCc3ccc(N(C)C)cc3)c2)CC1	-1.0%
COc1ccc(-c2cn3c(n2)sc2cc(C(=O)NCCC4=CCCCC4)ccc23)cc1	-9.2%

# Next part:
SMILES	miR-21 reporter
COc1cccc(N2CC(NC(=O)c3ccc(S(=O)(=O)N4CCOCC4)cc3)CC2=O)c1 (stereo unspecified)	?
CN(CC(=O)Nc1cccc(F)c1)S(=O)(=O)c1ccc2c(c1)n(C)c(=O)c(=O)n2C	-3.3%
CC1CCN(S(=O)(=O)c2ccc3c(c2)N(CC(=O)NCc2ccccc2Cl)C(=O)CS3)CC1	15.9%
Cc1ccc(NC(=O)Cn2c(=O)oc3cc(S(=O)(=O)N4CCCCC4)ccc32)c(C)c1	10.2%
O=C(NCc1ccccc1Cl)c1ccccc1NC(=O)c1nsc2ccccc12	-41.7%
COC(=O)c1sc2cccc(F)c2c1S(=O)(=O)Nc1ccc(C)cc1Cl	-2.4%
CCOC(=O)CNC(=O)c1cc2c(=O)oc3ccccc3c2s1	-2.0%
COc1ccccc1CNC(=O)Cn1c(=O)nc(-c2ccccc2F)c2cc(Cl)ccc21	9.7%
CCCNC(=O)C1CCC(Cn2c(=O)c3sccc3n(CC(=O)NCc3cccc(OC)c3OC)c2=O)CC1 (stereo unspecified)	1.9%
Cc1nn(C)c2c1c(C(F)(F)F)cc(=O)n2CC(=O)NCc1ccccc1Cl	-0.4%
CCc1ccc(Sc2cc(C(=O)NCc3ccccc3OC)c3ccccc3n2)cc1	25.5%
COc1ccc(-c2nc3ccc(C(=O)NCc4ccccc4)cc3nc2-c2ccc(OC)cc2)cc1	0.0%
CCOc1ccc(NC(=O)Cn2cc(C(=O)c3ccc(CC)cc3)c(=O)c3cc(C)ccc32)cc1	0.4%
Cc1ccc(NC(=O)CN2C(=O)C3(SCC(=O)N3c3cccc(Cl)c3)c3ccccc32)cc1C (stereo unspecified)	18.6%
CCc1ccc(OCC(=O)Nc2cc(-c3ccc(C)cc3)no2)cc1	-38.2%
CCCC[C@]12Cc3cc(OC)c(OC)cc3C(O1)C1=C(O2)C(=O)c2ccccc2C1=O	-5.6%[7.66 µM]
CC(=O)c1ccc(N2CCN(S(=O)(=O)c3ccc(-c4cc(C(F)(F)F)on4)s3)CC2)cc1	3.3%
CCC(C)n1c(=N)c(S(=O)(=O)c2ccc(C)cc2)cc2c(=O)n3cc(C)ccc3nc21 (stereo unspecified)	-9.7%
CCOc1ccccc1NC(=O)COC(=O)c1cn(CC)c2nc(C)ccc2c1=O	-0.9%
COc1cccc(Cn2c(SCC(=O)N(C)c3ccccc3)nc3ccccc32)c1	-7.5%
Cc1ccc(C(=O)Nc2ccccc2)cc1S(=O)(=O)Nc1ccccc1	6.8%
Cc1ccc(NC(=O)c2sc(-n3nc(C)c(Cc4ccc5c(c4)OCO5)c3C)nc2C)cc1C	-1.9%
O=C(COc1ccc(Cl)cc1)N(Cc1ccco1)c1ccccn1	-23.3%
Cc1ccc(NC(=O)CSc2nc3ccccc3c3nc(CCc4c(C)n[nH]c4C)nn23)c(C)c1	15.3%
COc1ccc(-c2nc3ccccc3o2)cc1NC(=O)C(C)(C)Oc1ccc(Br)cc1	-2.2%
COc1cccc(C(=O)Nc2ccc3nc(N4CCC(C)CC4)cc(C)c3c2)c1	12.4%
O=C(c1ccccc1Cl)N(Cc1ccco1)c1ccccn1	1.7%
Cc1cccc(CC(=O)Nc2cccc(-c3nc4cccnc4s3)c2)c1	-6.5%
O=C(Nc1nnc(S(=O)(=O)N2CCc3ccccc32)s1)c1cccc(Cl)c1	-0.3%
O=C(CSc1nc2c([nH]c3ccccc32)c(=O)n1-c1cccc(Cl)c1)N1CCc2ccccc21	3.7%
Cc1ccccc1NC(=O)CSc1nc(-c2ccccc2)cn1-c1ccccc1F	?
CCC(NC(=O)Nc1cc(OC)ccc1OC)c1c(-n2cccc2)sc2c1CCN(CC)C2 (stereo unspecified)	-12.1%
O=C(Nc1ccc(Br)cc1)c1ccc(F)c(S(=O)(=O)NC2CCCCCC2)c1	?

# Screening results (PubChem)
